Vaccinia mCherry: inhibitors of vaccinia virus infection (mCherry reporter signal) | hit rate 0.63% among 310,000 | AID 720579 | Vaccinia virus mCherry reporter infection, fluorescence; about a quarter of the inactives have no number | Potency, µM (top dose mostly 36.5 µM), for inactives: top-dose activity change, negative = inhibition, usual class: inhibitors; active = well fitted inhibition curve with a large enough effect; inconclusive = small, poorly fitted or top-dose-only effect; inactive = no such curve, though single readings can be large or run the other way; tested in A549 cells; also: nearly all actives have a fitted effect of over 35% in size; inactives centre near -10
Vaccinia Venus: inhibitors of vaccinia virus (Venus reporter) | Vaccinia virus Venus reporter expression, fluorescence | Potency, µM (titrated, usually from 36.5 µM), without a hit: top-dose activity change, negative = inhibition, most hits filed as inhibitors | hit rate 0.46% among 330,000; active means well fitted inhibition curve with a large enough effect; inconclusive means small, poorly fitted or top-dose-only effect; inactive means no such curve, though single readings can be large or run the other way; tested in A549 cells; also: nearly all actives have a fitted effect of over 30% in size; inactives centre near -10
The depositor's hits bear a star; i = inactive; ? = inconclusive; . = not tested or not shown; [ ] = dose if it differs, or a comment. % is scaled to controls: 0 for no effect and ±100 for the full control effect; potency is read from the fitted curve at half-maximal effect.

SMILES	Vaccinia mCherry	Vaccinia Venus
Cc1nn(-c2cccc(C(F)(F)F)c2)c(=O)c2noc(C)c12	-0.3%	-22.9%
O=C(Cn1cnc2cc([N+](=O)[O-])ccc2c1=O)N(Cc1ccccc1)C1CCS(=O)(=O)C1 (centres undefined)	-11.4%	-7.5%
CC1(C)Cc2c(C#N)c(N3CCOCC3)nc(Cc3ccccc3)c2CO1	.	-2.3%
O=C(C1CCN(S(=O)(=O)c2ccc(Br)s2)CC1)N1CCN(c2cccc(Cl)c2)CC1	?	-17.1%
Cc1cccc(Cc2cnc(NC(=O)CN3C(=O)/C(=C/c4ccccc4)SC3=S)s2)c1	i	-2.0%
CCC(C)C(NC(=O)C1CCC(C)CC1)C(=O)NC(CCSC)C(=O)OC (centres undefined)	-2.9%	-9.4%
CC(=O)c1ccc(N2CCN(c3ncnc4onc(C)c34)CC2)cc1	-27.8%	-13.6%
FC(F)(F)c1cccc(Cn2c3[n+](c4ccc(C(F)(F)F)cc42)CCCCC3)c1	-4.4%	-0.6%
O=C(C1CCN(S(=O)(=O)c2ccc(F)cc2)CC1)N1CCCC(C(F)(F)F)C1 (centres undefined)	i	-9.6%
CCOc1ccc(S(=O)(=O)N2CCOCC2)cc1NC(=O)c1ccc(N2CCCC2=O)cc1	-10.6%	-2.9%
CCc1c(-c2ccccc2)nc2nc(C)c(C)nn12	?	?
Cc1[nH]c2ccccc2c1CCN(Cc1cccs1)C(=S)Nc1ccccc1	?	-24.3%
C=CC[n+]1c(C)csc1Nc1ccc(C)cc1	-6.6%	-9.5%
CCNC(=S)N/N=C/c1cccc(OCc2c(F)cccc2Cl)c1	-6.5%	-27.2%
Cc1cc(C)nc(SCCn2c(N3CC(C)OC(C)C3)nc3c2c(=O)n(C)c(=O)n3C)n1 (centres undefined)	i	-1.9%
CCOC(=O)c1c(C)nc2sc3c(=O)n(-c4ccc(C)cc4)cnc3c2c1-c1ccc(OC)cc1	-8.3%	-1.5%
COc1ccc(-c2nc(CS(=O)(=O)CC(=O)NCc3cccc(Br)c3)c(C)o2)cc1	i	-18.4%
CCCCn1c(NC(C)=O)c(C#N)c2nc3ccccc3nc21	-19.6%	-11.1%
COC(=O)[C@]12CCCCC=C1N(Cc1cccc3ccccc13)C(=O)[C@H](CC(=O)NCC13CC4CC(CC(C4)C1)C3)C2	-6.9%	-15.2%
O=C(NC1CCCCC1)/C(=N\O)c1ccccn1	-0.7%	-13.2%
Cc1ccc(C(=O)NCCCNC(=O)c2ccccc2C)cn1	29.1%	-7.4%
C#CC[N+]1(CC#Cc2ccccc2)CCOCC1	-2.2%	-5.6%
COc1cc(OC)cc(C(=O)NC(C(=O)N2CCC2)C(C)C)c1 (centres undefined)	-14.0%	-12.2%
CC(C)CCNC(=S)Nc1ccc([N+](=O)[O-])cc1	?	?
CC[C@]12C(=O)N(C)C[C@H]([C@@H]3C(=O)N(Cc4ccccc4)C(=O)[C@@H]31)N2C(=O)c1ccc(Br)cc1	-13.9%	-8.5%
Cc1nnsc1C(=O)NNc1ccc(C(C)C)cc1	?	-2.6%
CCOC(=O)c1cc2c(=O)n3ccccc3nc2n(CCOC)c1=NC(=O)c1cc2ccccc2o1	3.2%	7.3%
N/C(=N\OS(=O)(=O)c1ccc(Cl)cc1)c1ccccn1	-14.3%	-13.0%
O=C(Nc1ccc(F)cc1)Nc1cccnc1Cl	0.0%	-15.7%
Cc1ccc2nccc(/C=C/c3ccc(N(C)C)cc3)c2c1	-24.0%	13.6%
Cc1[nH]n(-c2ccccc2)c(=O)c1C(C[N+](=O)[O-])c1ccc(Br)cc1 (centres undefined)	.	-21.0%
C(=N\n1cnnc1)/c1cn(-c2cccs2)nc1-c1ccccc1	-1.1%	-13.2%
Cc1ccc(CN2c3ccccc3-c3nc(SCC(=O)NCCc4ccccc4)ncc3S2(=O)=O)cc1	?	?
Cn1cc(-c2ccno2)c(C(=O)O)n1	-3.6%	-1.9%
CCc1cc(=O)oc2c(C)c(OCC(=O)Nc3ccc(S(=O)(=O)N(CC)CC)cc3)ccc12	1.8%	-10.7%
C[C@H](O)CNC(=O)c1[nH]cnc1C(=O)Nc1ccc(CNC(=O)OC(C)(C)C)cc1	-11.4%	-7.9%
CN(CC(=O)N1CCCCC1)S(=O)(=O)c1ccc(Cl)cc1	i	-16.1%
Cc1cc(/C=C2\C=Cc3ccccc32)cc(C)c1[N+](=O)[O-]	-10.8%	-9.8%
COc1ccc(-c2cc3nc(-c4ccccc4)cc(N4CCN(C(=O)c5ccoc5)CC4)n3n2)cc1	-11.0%	-17.8%
CC1CN=C(N(C(=O)Nc2ccccc2)c2ccc(F)cc2)S1 (centres undefined)	4.8%	-5.4%

Quoted from the listing:
`Cn1cc(-c2ccno2)c(C(=O)O)n1` in Vaccinia Venus is entered as -1.9%
`C(=N\n1cnnc1)/c1cn(-c2cccs2)nc1-c1ccccc1` in Vaccinia mCherry is entered as -1.1%

Next results follow.
SMILES	Vaccinia mCherry	Vaccinia Venus
CC[C@]12c3[nH]c4ccc(Cl)cc4c3CCN1C(=O)[C@@H](CC(=O)NCCC1=CCCCC1)C[C@@H]2C(=O)N1CCN(C(=O)c2ccco2)CC1	-6.4%	-20.5%
Cc1ccc(C)c(NC(=S)Nc2cccc3cnccc23)c1	?	0.1%
CCCCP(=O)(CCCC)Cc1ccccc1O	.	?
Cc1sc2ncnc(SCc3ccc(C(=O)O)cc3)c2c1C	-19.3%	-9.7%
Cc1ccc(NC(=O)c2cc([N+](=O)[O-])ccc2Cl)c(O)c1	-20.7%	-27.8%
CCN(Cc1ccccc1)C(=O)c1c(-c2ccccc2Cl)noc1C	i	-9.3%
Cc1c(C(=O)N(C)C)sc2c1c(=O)n(-c1ccccc1C(F)(F)F)c(=O)n2Cc1ccccc1C#N	-7.7%	2.0%
O=C(O)c1cccc(S(=O)(=O)N(Cc2ccccc2)c2ccccc2Cl)c1	-12.4%	-11.4%
COC(=O)c1ccc(C)cc1C1CN=NC12Cc1cc(C)ccc1C2=O (centres undefined)	-1.4%	-18.8%
O=C(c1cccc(S(=O)(=O)N2CCN(c3ccccc3)CC2)c1)N1CCN(c2ccccc2O)CC1	?	-5.3%

The list goes on; the last 6 above are carried over.
SMILES	Vaccinia mCherry	Vaccinia Venus
Cc1ccc(NC(=O)c2cc([N+](=O)[O-])ccc2Cl)c(O)c1	-20.7%	-27.8%
CCN(Cc1ccccc1)C(=O)c1c(-c2ccccc2Cl)noc1C	i	-9.3%
Cc1c(C(=O)N(C)C)sc2c1c(=O)n(-c1ccccc1C(F)(F)F)c(=O)n2Cc1ccccc1C#N	-7.7%	2.0%
O=C(O)c1cccc(S(=O)(=O)N(Cc2ccccc2)c2ccccc2Cl)c1	-12.4%	-11.4%
COC(=O)c1ccc(C)cc1C1CN=NC12Cc1cc(C)ccc1C2=O (centres undefined)	-1.4%	-18.8%
O=C(c1cccc(S(=O)(=O)N2CCN(c3ccccc3)CC2)c1)N1CCN(c2ccccc2O)CC1	?	-5.3%
COCC(=O)OC/C(O)=C(\C#N)c1nc2ccccc2[nH]1	16.7%	-16.5%
COc1ccccc1CNC(=O)C(Cc1ccccc1)NS(=O)(=O)c1ccc2c(c1)oc(=O)n2C (centres undefined)	-9.3%	-4.5%
Cc1cccc(NC(=O)NC2CCCc3ccccc32)c1 (centres undefined)	-3.2%	4.7%
Cc1cc(OCC(=O)Nc2ccc(Br)cc2)cc2c1C(=O)CC(C)(C)O2	13.7%	0.0%
Cc1ccc(CN2CCN(C3CCNCC3)C(=O)C2=O)cc1	-4.1%	-11.0%
Cn1ccc(/C=N/N=C2/NC(=O)CS2)n1	i[7.34 µM]	-7.9%[7.34 µM]
Cc1cc(/C=C2/NC(=O)NC2=O)c(C)n1C	i	5.8%
Cc1c(C(=O)OCC(=O)NCc2ccco2)cccc1[N+](=O)[O-]	i	-8.6%
CCOc1ccc(/C=N/NC(=O)c2ccccc2C)cc1CN1CC2CC(C1)c1cccc(=O)n1C2 (centres undefined)	-12.4%	-27.0%
CCCC(C)C(=O)Nc1cc([N+](=O)[O-])ccc1F (centres undefined)	-11.3%	-14.2%
C=CCNC(=O)/C(C#N)=C\c1cc(Cl)c(O)c(OCC)c1	-4.5%	-0.2%
O=C(c1ccco1)N1CCN(C(=O)c2ccccc2[N+](=O)[O-])CC1	i	-14.7%
CCN(c1ccccc1)S(=O)(=O)c1cc(C(=O)Nc2ccc(Br)cc2)ccc1F	14.1µM*	12.6µM*
COc1ccc(C(CC(=O)N2CCOCC2)c2c(OC)cc(OC)c3c(-c4ccccc4)cc(=O)oc23)cc1 (centres undefined)	-13.1%	-27.5%
CCOC(=O)N1CCN(C(=O)CSc2nnc(COc3ccccc3)o2)CC1	-7.3%	0.2%
CC(C)CC(=O)Nc1ccccc1OCc1cc(=O)n2ccccc2n1	-10.8%	-21.9%
COc1ccccc1CCc1nnc(CCC(=O)NCCC2CCCCO2)o1 (centres undefined)	i	1.7%
OC(COC(c1ccccc1)c1ccccc1)CN1CCN(c2cccc(Cl)c2)CC1 (centres undefined)	-29.6%	-8.2%
Cc1oc(-c2cccc(Cl)c2)nc1CN1CCC(C(=O)NC(C)c2ccccc2)CC1 (centres undefined)	?	?
O=C(NCc1ccccc1)C(c1ccccc1)N(Cc1ccc2c(c1)OCO2)C(=O)Cc1cccs1 (centres undefined)	?	-29.9%
C/C(=N\NC(=O)c1ccc2c(c1)OCCO2)c1ccccc1	-9.3%	-9.1%
Cc1ccc2c(Cl)c(C)c(N3CCCCC3)nc2n1	-14.9%	?
O=C(CCNC(=O)OCc1ccccc1)NC1CCCCC1	-14.2%	-13.9%
Cc1ccc(-c2cc(C(=O)N3CCOCC3)c3ccccc3n2)cc1	-6.7%	-7.3%
CC/C(=N\NC(=O)C(N)=O)c1ccccc1O	-16.7%	-21.7%
CC(C)(C#N)O[C@H]1OC(CO)C(O)C(O)C1O (some centres undefined)	5.3%	9.0%
Cc1nc2c(C(=O)O)cnn2c(C)c1Cc1ccccc1	-5.4%	2.0%
O=C(Oc1ccccc1)c1ccccc1C(=O)Oc1ccccc1	-12.4%	-5.4%
COC(=O)[C@@]12CCCCN1[C@H](c1ccc(-c3ccc(OC)cc3)cc1)[C@H]1C(=O)N(C)C(=O)[C@H]12	?	?
CC(=O)Oc1cccc(C2=CC(=O)CC(C)(C)C2=O)c1	-7.6%	-6.4%
Cc1c2cnn(CC(=O)O)c(=O)c2c(C)n1Cc1ccccc1	i	1.7%
Cc1ccccc1NC(=O)c1sc2nc3c(cc2c1N)CCCC3	-0.1%	-26.4%
COc1cccc(-c2csc(N3CCN(C(=S)Nc4ccccc4)CC3)n2)c1	-19.9%	-15.0%
C=C(C)CC(NCCc1ccccc1)c1ccco1 (centres undefined)	i	-10.5%
O=C(NC1CCCC1)c1ccc(CSc2nc3cccnc3n2Cc2cccc(F)c2)cc1	1.8%	-2.3%
Cc1[nH]c(=O)[nH]c(=O)c1S(=O)(=O)N1CCCC(C(=O)NCCC2=CCCCC2)C1 (centres undefined)	-2.5%	-5.2%
O=C(N=C1SC2CS(=O)(=O)CC2N1c1ccc(F)c(Cl)c1)C1CCCO1 (centres undefined)	-20.3%	-18.6%
COC(=O)c1cc2sc(C)cc2n1Cc1cccc(OC)c1	-27.9%	-25.1%
Cc1ncc(CO)c(CO)c1OCC(O)CN1CCN(c2ccc(F)cc2)CC1 (centres undefined)	25.1%	-10.2%
CCOC(=O)c1c(NC(=O)CSc2ncnc3ccccc23)sc(C(C)=O)c1C	-12.5%	5.3%
Cc1ccc(N2C(=O)N(c3ccc(C)cc3)C3CS(=O)(=O)CC32)cc1 (centres undefined)	i	-1.4%
COc1ccc(Cl)cc1NC(=O)CCN1C(=O)c2ccccc2Sc2ncccc21	-8.5%	-11.7%
Cc1ccc(S(=O)(=O)N2C[C@H]3C(=O)C[C@@H]4C(=O)N(c5ccccc5)C(=O)[C@@H]4[C@@H]3C[C@H]2c2cccc(Cl)c2)cc1	28.1%	-2.6%
CCc1ccccc1N(C(=O)c1snc(C(N)=O)c1N)C(C(=O)NCC1CCCO1)c1ccc(N(C)C)cc1 (centres undefined)	-10.9%	-4.5%
O=C(NCc1nnc(SCc2ccc(F)cc2)n1-c1ccccc1)C12CC3CC(CC(C3)C1)C2	?	?
COc1ccc(NC(=O)Cn2nnc(C(=O)Nc3ccc(F)c(Cl)c3)c2N)cc1OC	i	-11.2%
Cc1ccc(CN2C(=O)CCC2C(=O)N2CCN(c3ccc(F)cc3)CC2)cc1 (centres undefined)	.	?
O=C(Nc1ccccc1Cl)N1CCN(c2ccc3nnc(-c4ccccc4)n3n2)CC1	?	?
CCCC(=O)NCCCc1nc2ccccc2n1C(C)C	i	1.5%
CN(Cc1ccccc1)C(=O)CN(c1ccc(F)cc1)S(=O)(=O)c1ccc2c(c1)OCCO2	.	-18.2%
(next part)
SMILES	Vaccinia mCherry	Vaccinia Venus
COc1cc(OC)c(NC(=O)Cn2cnc3sc(C)c(S(=O)(=O)N4CCC(C)CC4)c3c2=O)cc1Cl	-13.1%	-17.2%
ICC[n+]1csc2ccccc21	11.2%	15.4%
Cc1ccc(N=C(NO)c2nonc2N)c(C)c1	-4.7%	-15.6%
OC(COCc1ccccc1)CN1CCN(Cc2ccc3c(c2)OCO3)CC1 (centres undefined)	-2.7%	1.8%
Cc1ccsc1/C=N/NC(=O)CN1CCN(Cc2ccccc2)CC1	-22.9%	-1.3%
CCOc1ccccc1NC(=O)C1C(c2ccccc2)C1(Cl)Cl (centres undefined)	-6.7%	-16.5%
COc1cccc(/C=N/N2CCN(c3ccncc3S(=O)(=O)N3CCCCC3)CC2)c1	i	-8.9%
O=C(CN(Cc1ccccc1)C(=O)CCC(=O)Nc1nccs1)NCc1ccco1	.	-6.5%

Screening results deposited in PubChem BioAssay by National Center for Advancing Translational Sciences (NCATS).

The order is random. About 0.82% of those tested had a hit in this group.
